Assay outcomes: PubChem BioAssay, Center for Chemical Genomics, University of Michigan
HIV TAR-Tat: TAR RNA-Tat peptide displacers, HIV-1, primary screen, biochemical, FRET, FAM/TAMRA-labeled Tat; HIV-1 TAR RNA, Tat peptide displacement FRET; active compounds read high; z-score (no concentration beside the values); actives 0.6% (n = 100,000);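 further: score is relative to mean and SD of negative controls; some compounds called inactive have numbers as strong as hits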
CDC25B CDK2 inh: primary biochemical HTRF screen for blockers of M-phase inducer phosphatase 2 binding to CDK2/cyclin A; actives 0.72% (n = 94,000); z-score (no concentration beside the values); HTRF CDC25B-CDK2/CyclinA binding, anti-His/anti-Flag; active compounds read high; P30305+P24941;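 further: score is relative to mean and SD of negative controls; strong numbers were not always called active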
Numbers without * were called inactive; . = no result given.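 How the source made its calls: active means z-score from 3 up in half or more of its runs; inactive means the rest.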

SMILES	HIV TAR-Tat	CDC25B CDK2 inh
NC(=O)C[n+]1ccn2c(NC3CCCCC3)c(-c3ccc(N4CCOCC4)cc3)nc2c1	-8.1	-2.6
COC(=O)c1ccc2c(=O)n3nc(Nc4ccc(OC)cc4)sc3nc2c1	1.4	.
CN1CCOc2ccc(S(=O)(=O)Nc3ccccc3Cl)cc21	0.5	.
CCOc1ccc(Nc2ncnc3sc(C(=O)O)c(C)c23)cc1	4.7*	.
CN1C(=O)c2cccc3c(S(=O)(=O)NC(Cc4c[nH]c5ccccc45)C(=O)O)ccc1c23 (centres undefined)	1.6	-1.7
CCOc1ccccc1N1CCN(C(=O)c2cc3c(C)cc(C)cc3[nH]2)CC1	.	-1.4
CC1CCc2onc(C(=O)N3CCN(c4ccccn4)CC3)c2C1 (centres undefined)	0.85	.
COc1ccccc1N1CCN(S(=O)(=O)c2ccc(-c3cc(C(F)(F)F)on3)s2)CC1	1.4	.
CN(C)CCNc1ncnc2c1oc1nc3c(cc12)COC(C)(C)C3	0.87	.
COc1ccc(N2C(=O)C3CCCCC3C2=O)cc1OC (centres undefined)	.	-2.6
O=C(NCc1cccnc1)c1ccc2c(c1)sc1nc(-c3ccc(F)cc3)cn12	2.9	.
Cn1nc(C(=O)NCCN2CCc3ccccc3C2)c2c1-c1ccccc1SC2	1.3	-0.79
COc1cc2nc(SCC(=O)Nc3cc(C)[nH]n3)n3nc(C)nc3c2cc1OC	.	-0.58
CC(C)c1ccc(-c2c(N3c4ccccc4CC3C)c(=O)c2=O)cc1 (centres undefined)	2	.
COc1ccc(S(=O)(=O)NCCc2csc3nc(-c4ccc(Cl)cc4)nn23)cc1F	2.2	.
CC(=O)c1csc(-c2ccc(C(F)(F)F)cc2)n1	.	1.5
CC1CCN(c2ccc(NC(=O)CCS(=O)(=O)c3ccc4c(c3)CCN4C(=O)C3CC3)cc2)CC1	0.81	.
Cc1cc(-n2[nH]nnc2=S)ccc1F	.	-1.2
CCOc1cc(C(=O)Nc2cccc3c2C(=O)c2ccccc2C3=O)cc(OCC)c1OCC	.	-2.4
Cc1cc(C)cc(-n2ccn3c(CCCC(=O)O)nnc3c2=O)c1	2	-1.4
Cc1cc(CNC(=O)NC2CCCCC2)c(C)n1-c1ccc(Cl)cc1	0.3	-0.55
COC(=O)c1sc2nc(N3CCCC3)c3c(c2c1N)CCCC3	-1.4	-2.4
CCN(CC)CC(O)Cn1c2c(c3ccccc31)CCCC2=O (centres undefined)	.	-0.58
O=C(O)c1noc2c1C1=NCCN1C=N2	0.69	-0.11
CC1CCN(S(=O)(=O)N2CCCC(C(=O)NCCN3CCCCC3)C2)CC1 (centres undefined)	0.77	-0.47

Given with two lines to a compound: 5 of the compounds above.
Every second line gives: HIV TAR-Tat, CDC25B CDK2 inh
CC1CCN(c2ccc(NC(=O)CCS(=O)(=O)c3ccc4c(c3)CCN4C(=O)C3CC3)cc2)CC1
    0.81, .
Cc1cc(-n2[nH]nnc2=S)ccc1F
    ., -1.2
CCOc1cc(C(=O)Nc2cccc3c2C(=O)c2ccccc2C3=O)cc(OCC)c1OCC
    ., -2.4
Cc1cc(C)cc(-n2ccn3c(CCCC(=O)O)nnc3c2=O)c1
    2, -1.4
Cc1cc(CNC(=O)NC2CCCCC2)c(C)n1-c1ccc(Cl)cc1
    0.3, -0.55

(cont.)
SMILES	HIV TAR-Tat	CDC25B CDK2 inh
CCOc1ccc2nc(NC3=NCN(CCc4ccccc4)CN3)nc(C)c2c1	0.8	0.44
CC(=O)N1N=C(c2ccc(C)nc2)OC1c1cc2c(cc1Cl)OCO2 (centres undefined)	-0.02	.
Cn1c(=O)oc2cc(S(=O)(=O)Nc3ccc(O)cc3)ccc21	-7	-0.96
Nc1ccc(C(=O)Oc2ccc(Oc3ccccc3)cc2)cc1	.	-1.1
COc1ccc(/C=C/C(=O)N2CCN(c3ccccc3OC)CC2)cc1OC1CCCC1	.	-2.4
O=C(CN1C(=O)c2cccnc2Oc2ccccc21)NCc1ccco1	-0.22	.
OCCOCCNc1ncnc2sc3c(c12)CCCC3	.	-0.67
Nc1ccc2oc(-c3cccc4c(Br)cccc34)nc2c1	0.48	-2.9
COc1ccc(OC)c(-c2nc3c(c(=O)[nH]2)Cc2cc(Br)cc(OC)c2O3)c1	0.92	-0.19
Cc1cc(=O)n2c(n1)NC(=NCc1ccccc1)NC2c1cccnc1 (centres undefined)	-0.01	1.1
O=C1C2ON(c3ccccc3)C(c3ccco3)C2C(=O)N1c1ccc(F)cc1 (centres undefined)	-0.25	1.1
N#CCCN(CCCN1CCOCC1)C(=S)Nc1ccc(Cl)cc1	.	-2.3
Cc1cc(C2CCCN2Cc2cc(Cl)ccc2O)no1 (centres undefined)	1.7	.
O=C(Cn1c(=O)c2cccn2c2ccccc21)NCCN1CCOCC1	1.7	.
COc1cc(C)c(C)cc1S(=O)(=O)NC1CC(C)(C)NC(C)(C)C1	.	0.42
CC(=O)Oc1ccc(Br)cc1C1OC(c2ccc(Cl)cc2)=NN1C(C)=O (centres undefined)	2.4	.
COC(=O)CSc1nnc(CSc2ncccn2)n1-c1ccc(F)cc1	1.6	-1.9
CCc1nc2nc(C)cc(Nc3cc(C)ccc3C)n2n1	0.43	-1
Cc1ccsc1CCNC(=O)CCc1c(C)nc2c(c(C)nn2C)c1C	1.4	-1.2
CNc1nc(Nc2ccc(Cl)cc2C)c2cnn(C)c2n1	0.86	.
Cn1c(=O)c2c(ncn2Cc2ccccc2Br)n(C)c1=O	.	-0.58
CCOC(=O)C1=C(C)N=C2SC(C)C(=O)N2C1c1ccccc1 (centres undefined)	2.6	-0.39
Cn1ccc(-c2cccc(NC(=O)Nc3ccccc3)c2)n1	.	1.3
COc1ccc(C2C3=C(CC(c4ccco4)CC3=O)Nc3nc4ccccc4n32)cc1 (centres undefined)	-5	-0.5
Cc1cc(C)n(C(=O)C2=C(c3ccccc3)c3ccccc3S(=O)(=O)N2C)n1	0.35	-1.4
The listing continues.
SMILES	HIV TAR-Tat	CDC25B CDK2 inh
O=C(CSc1nccn1Cc1ccc2c(c1)OCO2)NCc1ccco1	2	.
CCOC(=O)C(NC(C)=O)(OC)C(F)(F)F (centres undefined)	.	-0.56
O=C(NC1CC1)c1cccc(-c2nc(-c3ccccc3)no2)c1	2.3	.
CCOC(=O)C1=NN(c2ccc(C)cc2)C2C(=O)N(c3ccc(OCC)cc3)C(=O)C12 (centres undefined)	0.39	0.19
Cn1c(NC(=O)c2ccc(F)c(F)c2)cc(=O)n(C)c1=O	2	.
CC(=O)N1c2ccc(S(=O)(=O)N3CCCC3C(=O)Nc3cccc(C)n3)cc2CC1C (centres undefined)	0.88	.
COc1ccc(NS(=O)(=O)c2ccc(CN3C(=O)c4cccnc4C3=O)s2)cc1OC	0.51	.
CCCCN1CCn2c(nc3cc(NS(=O)(=O)c4ccc(Cl)cc4)ccc32)C1	-0.93	-1.6
Cc1ccc(S(=O)(=O)n2nc(C)c(S(=O)(=O)N3CCCC3)c2C)cc1C	1.1	.
COc1ccc(N2CCN(C(=O)C3=Cc4sc(C)c(C)c4CS3)CC2)cc1	-1.9	.
CCCCNC(=O)c1nn2c(c1Cl)NC(c1cccs1)CC2C(F)(F)F (centres undefined)	1.1	-0.54
OC(COc1ccc2c(c1)OCO2)CN1CCCN(c2nc3ccc(Cl)cc3s2)CC1 (centres undefined)	.	0.2
O=C(O)Cn1c(-c2cccs2)cc2cc(F)ccc21	1.5	-0.37
O=C(CCC(=O)N1CCc2ccccc21)Nc1ccc(I)cc1	.	-2.9
Oc1c(C(Nc2ccccn2)c2ccccc2F)ccc2cccnc12 (centres undefined)	.	-1
Nc1ccc(CCc2nc3cc(N)ccc3o2)cc1	0.91	-3.7
CCCCN1CCc2nc(N3CCN(c4ccc(F)cc4)CC3)ncc2C1	-0.97	.
Cc1cc(C)nc(SCC(=O)N2CCC(C(N)=O)CC2)n1	0.49	0.74
O=C(Cc1ccc(Cl)cc1)NCc1nc(-c2ccc3c(c2)nnn3C2CCCC2)no1	2.5	.
Cc1ccc(NS(=O)(=O)c2ccc3oc(=O)c4ncn(C)c4c3c2)cc1C	1.2	-1.3
O=C1COc2cc(-c3c(N(CCc4ccccc4)Cc4ccccc4)c(=O)c3=O)ccc2N1	-0.39	.
COc1ccc2nc3sc(C(=O)N4CCCC4)cc3cc2c1	.	-5.4
OCCNCc1cccc(OCc2ccc(F)cc2)c1	1	0.95
Fc1ccccc1C#Cc1ccnc2ccccc12	.	-0.97
CCCCCn1c(/N=C/c2c(O)c(Br)cc3oc4c(c23)CCCC4)nc2ccccc21	.	-2.8

Whole records as entered above.
Results for `O=C(CCC(=O)N1CCc2ccccc21)Nc1ccc(I)cc1` → HIV TAR-Tat = .; CDC25B CDK2 inh = -2.9
Results for `Cc1cc(C)nc(SCC(=O)N2CCC(C(N)=O)CC2)n1` → HIV TAR-Tat = 0.49; CDC25B CDK2 inh = 0.74
Results for `CCCCNC(=O)c1nn2c(c1Cl)NC(c1cccs1)CC2C(F)(F)F` (centres undefined) → HIV TAR-Tat = 1.1; CDC25B CDK2 inh = -0.54

Next structures
SMILES	HIV TAR-Tat	CDC25B CDK2 inh
COc1ccc(C2CC(c3c(O)n(C)c(=O)[nH]c3=O)=Nc3ccccc3S2)cc1OC (centres undefined)	3.5	0.36
c1ccc(-c2cnsc2-c2ccccc2)cc1	.	-1.6
CC1CSc2ccc(S(=O)(=O)N(C)C3CCCCC3)cc2NC1=O (centres undefined)	0.95	.
O=C(NCCc1ccccc1)Nc1cnc2ccccn2c1=O	1.4	-2
CCn1cc(C2CC(=O)Nc3c2c(C)nn3-c2nc3ccccc3[nH]2)c(C)n1 (centres undefined)	1.7	.
CC1(C)CC(=O)C2=C(C1)Nc1ccccc1N(Cc1cccc(F)c1)C2c1ccco1 (centres undefined)	-7.7	.
O=C(CCSc1nc(-c2ccc3c(c2)OCO3)cc(C(F)(F)F)n1)N1CCOCC1	-0.5	0.1
COc1cc(NC(=S)NC(=O)c2ccccc2)c(OC)cc1Cl	.	-1.4
COc1ccccc1N1CCN(c2csc3ccccc3c2=O)CC1	-0.4	.
Cc1ccc2nc(-c3ccccc3)cc(C(=O)O)c2c1	-0.56	0.47
O=C(O)Cn1c(SCCOc2ccc(Cl)cc2)nc2ccccc21	-0.21	-0.65
CCOC(=O)C1=C(C)N=C2SCCC(=O)N2C1c1ccc(C(=O)OC)cc1 (centres undefined)	0.14	-0.96
O=C(Cc1ccc([N+](=O)[O-])cc1)NC1CCCCCCC1	.	-1.2
CCOc1ccc(-c2cc(N)n(S(=O)(=O)c3ccc(F)cc3)n2)cc1	1.8	-1.1
COc1ccc(C2Nc3ccccc3-n3cc4c(=O)n(C)c(=O)n(C)c4c32)c(OC)c1 (centres undefined)	1.3	-0.6
CCC(=O)Oc1ccc2oc(C)c(C(=O)OCCOC)c2c1	0.52	-0.02
COc1ccc(NC(=O)CSCc2c(C)c(C)c(C)c(C)c2C)cc1	.	-1.6
Cc1ccc(C2C3=C(CCCC3=O)Nc3nc(SCc4ccc(C(=O)O)cc4)nn32)cc1 (centres undefined)	-6.4	-1.3
COc1ccc(NC(=O)NCCc2csc3c2CCCC3)cc1OC	0.82	.
CN1CCN(CCCNC(=O)CN2C(=O)CCn3nc(-c4cccn4C)cc32)CC1	-0.49	.
COc1ccc(-c2nc(=S)c3c([nH]2)Oc2c(cccc2OC)C3)cc1O	-1.2	-1.5
COCCOC(=O)c1c(C)oc2ccc(NS(=O)(=O)c3ccc(F)cc3)cc12	1.8	0.96
COCCNC(=O)CCCN1C(=O)CCn2nc(-c3cccn3C)cc21	0.76	.
Cc1cc2c3c([nH]c2cc1S(=O)(=O)Nc1ccc(Cl)cc1F)CCCC3=O	0.63	.
Fc1ccc(C(NCc2ccc3c(c2)OCO3)c2nnc(-c3ccccc3)o2)cc1 (centres undefined)	-0.5	-2.4
Additional records:
SMILES	HIV TAR-Tat	CDC25B CDK2 inh
CCC/C(O)=c1\c(=O)nc2ccc(Cl)c3c2=c1c1ccccc1c3=O	-0.18	0.77
Cc1noc2ncnc(NC(C)C)c12	1.4	.
Fc1cccc(Cl)c1C=Nc1cccc(-c2ncon2)c1	.	-3.3
CCCNC(=S)Nc1ccc2nc3c4ccccc4c4ccccc4c3nc2c1	.	11*
Cc1cc(C)cc(N(CC(=O)N2CCn3c2nc2ccccc23)S(=O)(=O)c2c(C)noc2C)c1	.	-0.21
CN1C(C(=O)NCc2ccc(F)cc2)=CC(c2ccc(F)cc2)=NS1(=O)=O	1.5	-2.6
CSc1nnc(NC(=O)c2nn(-c3ccccc3)ccc2=O)s1	-1	-1.7
CCC(C)NC(=O)c1nn(C)c2c1COc1ccccc1-2 (centres undefined)	1.9	-1.2
NCCCCC(N)C(=O)NC(Cc1ccc(O)cc1)C(=O)NC(CCCCN)C(=O)O (centres undefined)	-1.8	.
CSC1=N/C(=C\c2ccccc2C)C(=O)S1	-0.29	-1.1
CCOC(=O)c1sc(Nc2nc3cc4c(cc3s2)OCO4)nc1C	.	-2.1
C#CCSc1nc2c(c(=O)[nH]1)C(c1ccc(F)cc1F)CC(=O)N2 (centres undefined)	0.32	-1.2
COc1ccc(NC(=O)C(=O)CC(=O)c2ccccc2)cc1	.	1.4
Cn1c2c(c(=O)n(C)c1=O)CN(CC1CCCO1)CN2 (centres undefined)	-0.25	-2.7
CCCCN(CCCC)S(=O)(=O)c1ccc2c(c1)NC(=O)CCS2	0.66	.
Cc1cc(=O)oc2cc(OCc3ccc(F)cc3)c(Cl)cc12	.	-1.8
